Screens (PubChem BioAssay)
miR-21 reporter: miR-21 reporter, rising signal | HeLa miR-21 FLuc reporter, luciferase, 48 h | Potency, µM (top dose mostly 38.3 µM), without a hit: top-dose reporter change, positive = more light | 340,000 tested, under 10 active | AID 2288; active = well fitted rising curve with a large enough effect; inconclusive = small, poorly fitted or top-dose-only effect; inactive = no such curve, though single readings can be large or run the other way;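 also: % of control where 0% means no effect; miR-21 action dims this reporter so a rising signal means less miR-21 action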
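Using DMEM plus 10% FBS, HeLa miR-21-FLuc cells are incubated with test compounds (final up to about 40uM) for 48 hours; firefly luciferase signal is then imaged following reagent-mediated lysis.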
Rango complex inh: Rango-importin beta binding inhibition. Q14974. Rango CFP/YFP FRET sensor + importin beta, 45 min. Potency, µM (titrated, usually from 92.2 µM), without a hit: at the top dose inhibition of complex formation. 0.031% of 340,000 active; active = rising FRET ratio curve, often small or poorly fitted; inconclusive = mostly compound fluorescence or quenching in the first reads; inactive = flat curves in all reads;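 also: potency is read from the fitted curve at half-maximal effect; 0% = DMSO wells and 100% = buffer wells lacking importin beta; nearly all actives have a fitted effect of over 15% in size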
Target sequence (Q14974 whole entry, looked up): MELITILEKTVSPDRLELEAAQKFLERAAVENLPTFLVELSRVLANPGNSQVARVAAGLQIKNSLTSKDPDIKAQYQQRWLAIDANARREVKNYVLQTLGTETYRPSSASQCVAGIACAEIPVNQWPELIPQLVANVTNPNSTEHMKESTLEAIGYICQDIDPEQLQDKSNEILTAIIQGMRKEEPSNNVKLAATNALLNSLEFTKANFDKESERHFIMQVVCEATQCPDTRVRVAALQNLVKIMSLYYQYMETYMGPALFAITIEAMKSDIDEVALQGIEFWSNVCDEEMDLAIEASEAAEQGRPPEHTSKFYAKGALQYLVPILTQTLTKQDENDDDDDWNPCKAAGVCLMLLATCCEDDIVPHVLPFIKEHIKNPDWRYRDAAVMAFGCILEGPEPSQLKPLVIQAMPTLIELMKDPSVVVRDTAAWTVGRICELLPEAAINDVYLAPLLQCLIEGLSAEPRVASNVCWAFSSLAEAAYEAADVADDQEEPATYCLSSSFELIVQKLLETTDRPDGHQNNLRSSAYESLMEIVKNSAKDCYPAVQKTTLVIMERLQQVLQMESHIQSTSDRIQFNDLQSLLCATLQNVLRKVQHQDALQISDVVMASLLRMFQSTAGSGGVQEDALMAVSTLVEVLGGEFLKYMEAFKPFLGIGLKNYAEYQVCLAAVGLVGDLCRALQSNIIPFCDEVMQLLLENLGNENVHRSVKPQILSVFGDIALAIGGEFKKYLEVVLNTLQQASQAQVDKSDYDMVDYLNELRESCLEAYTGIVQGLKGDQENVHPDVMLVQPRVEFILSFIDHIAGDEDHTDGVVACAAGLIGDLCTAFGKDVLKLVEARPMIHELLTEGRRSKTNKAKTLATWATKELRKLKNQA
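Inhibition scored from the CFP 486 nm/YFP 530 nm FRET ratio 45 min after adding 0.125 microM importin beta to 50 nM Rango biosensor preincubated 5 min with compound (room temperature, PBS with DTT, Tween-20, BSA). No-importin wells as positive control.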
Rango release inh: inhibitors of RanGTP-induced Rango-importin beta complex dissociation; Biochemical FRET Rango-importin beta, RanGTP-induced dissociation; Potency, µM (doses to about 46.1 µM), for the others: at the highest dose activity change, negative = inhibition; O95149+P62826; 0.071% of 340,000 active; active means falling FRET ratio curve, often poorly fitted, with flat reads before Ran was added; inconclusive means other falling curves, or compound fluorescence or quenching; inactive means flat or rising ratio curve;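 also: potency is read from the fitted curve at half-maximal effect; % of control where 0% means no effect; nearly all actives have a fitted effect of over 45% in size; -100% = wells without RanGTP and RCC1; the record marks most hits as doubtful in a second field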
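Two FRET readings bracket the reaction: one 5 min after compound meets Rango–importin beta, another 45 min after RanGTP-RCC1 (0.6 uM Ran, 0.2 uM RCC1, 2 mM GTP) is added. Only the second defines inhibition.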
GLA inh pH 4.5: inhibitors of human alpha-galactosidase A at pH 4.5; purified enzyme, 4-MU-alpha-Gal fluorescence, pH 4.5; activity change, negative = inhibition, % at 105 µM; 230,000 tested, under 10 active; inconclusive = small, poorly fitted or top-dose-only inhibition, or a rising curve; inactive = flat fitted curve, though single readings scatter; no compound was filed as active;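 also: 0% = full activity with enzyme and -100% = basal without enzyme; dose as in the result columns while the protocol names 77 µM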
The depositor's hits bear a star; ? = inconclusive; . = no result given; & = joins results of further samples. An excerpt; rates above refer to the full screens.

SMILES | miR-21 reporter | Rango complex inh | Rango release inh | GLA inh pH 4.5
O=C1CS/C(=N/N=C/c2cccs2)N1 | -11% | 4.1% | 0% | -7
Cc1ccc(NC(=O)Cn2nnc3ccccc32)c(C)c1 | -4% | 6.6% | 1% | -1
O=C(Cn1nc(-c2ccccc2)ccc1=O)Nc1ccc(-n2cnnn2)cc1 | 4% | -0.2% | 1% | 25
COC(=O)c1ccc(COc2ccc3c(c2)CCC3)o1 | -69% | -0.3% | -10% | -1
CCOc1ccc(CCNC(=O)COC(=O)CSc2ccc(C)cc2)cc1OCC | . | -2.8% | 0% | .
CC(=O)Nc1cccc(NC(=O)c2cc(-c3ccccn3)nc3ccc(Cl)cc23)c1 | 1% | -1.2% | -1% | .
Cc1ccc(S(=O)(=O)N2CCOC2CNC(=O)C(=O)NCc2ccccn2)cc1 (configuration not stated) | -7% | 4.6% | 0% | .
CCc1ccc(NC(=O)CNC(=O)c2nn(-c3ccc(OC)cc3)c(=O)c3ccccc23)cc1 | 9% | 0.9% | ? | .
COc1ccc(-c2cccc(C(=O)Nc3ccc(C)cc3)c2)cc1 | -2% | -0.9% | 15% | 8
CCC(C(=O)N1CCCC1)n1nc(C)c2c(C)n(-c3ccccc3)nc2c1=O (configuration not stated) | -1% | ? | 16% | .
O=c1oc2cc(S(=O)(=O)NCCCO)ccc2c2ccc(S(=O)(=O)NCCCO)cc12 | -1% | -3.4% | 1% | -1
COc1ccc(C(=O)NCC(=O)OCC(=O)N2CC(C)OC(C)C2)cc1OC (configuration not stated) | . | 1.9% | -14% | .
CC1CC(=O)Nc2ccccc2N1C(=O)COc1cc(Cl)ccc1Cl (configuration not stated) | . | -0.4% | -3% | .
COc1ccccc1C(=O)Nc1c2c(nn1-c1cccc(C)c1C)CS(=O)(=O)C2 | -7% | -4.5% | -14% | -5
Cc1cc(Nc2ccc(Cl)cc2)n2ncnc2n1 | -2% | 4.6% | -9% | .
CCOc1cc(C2C(C#N)=C(N)Oc3n[nH]c(C)c32)ccc1OCCN1CCOCC1 (configuration not stated) | -4% | -0.4% | 17% | -2
O=C(NNC(=S)NCc1ccco1)c1ccc(S(=O)(=O)N2CCOCC2)cc1 | 5% | -5.3% | 0% | -4
CC/C(=N\NC(=O)CSCc1ccccc1Br)c1ccc2c(c1)OCCO2 | -7% | -3.3% | 2% | 6
CCOC(=O)N1CCN(C(=O)CSC2=NS(=O)(=O)c3cc(Cl)ccc3N2)CC1 | . | -1.1% | -4% | .
Cc1ccc2nc(-c3ccccc3)c(CN3CCSCC3)n2c1 | -18% | 0.8% | -6% | 2

In a second layout: five of the compounds above.
miR-21 reporter	Rango complex inh	Rango release inh	GLA inh pH 4.5	SMILES
.	-2.8%	0%	.	CCOc1ccc(CCNC(=O)COC(=O)CSc2ccc(C)cc2)cc1OCC
1%	-1.2%	-1%	.	CC(=O)Nc1cccc(NC(=O)c2cc(-c3ccccn3)nc3ccc(Cl)cc23)c1
-7%	4.6%	0%	.	Cc1ccc(S(=O)(=O)N2CCOC2CNC(=O)C(=O)NCc2ccccn2)cc1 (configuration not stated)
9%	0.9%	?	.	CCc1ccc(NC(=O)CNC(=O)c2nn(-c3ccc(OC)cc3)c(=O)c3ccccc23)cc1
-2%	-0.9%	15%	8	COc1ccc(-c2cccc(C(=O)Nc3ccc(C)cc3)c2)cc1

(cont.)
SMILES | miR-21 reporter | Rango complex inh | Rango release inh | GLA inh pH 4.5
CC(=O)Nc1ccc2nc(N)sc2c1 | . | 0.2% | -8% | .
NS(=O)(=O)c1ccc(NC(=O)c2cc(Cl)sc2Cl)cc1 | 14% | 0.0% | 21% | .
N#Cc1nc(Cc2ccccc2)oc1NCc1ccccc1Cl | -36% | 4.1% | -11% | -13
CCn1c(SCC(=O)NC)nnc1C(C)C | -15% | 0.9% | ? | 5
COc1cc(C2Nc3cccc4cccc(c34)N2)ccc1OC(C)=O | -4% | -3.6% | 3% | -2
O=C(NCCc1ccccc1)C(=O)N/N=C/c1ccc2c(c1)OCO2 | -9% | 2.8% | -17% | 0
COc1cc(C2Nc3ccccc3C(=O)N2c2ccc(Cl)cc2)c(Cl)cc1OCC(=O)O (configuration not stated) | -72% | -4.4% | -12% | -1
O=C(O)/C=C/c1ccc(S(=O)(=O)Nc2ccc(C(=O)NCC(=O)O)cc2)cc1 | 0% | 0.0% | 8% | 6
O=C(CCc1nc(-c2ccccc2)no1)NC1CCCCC1 | -9% | 0.3% | 15% | 13
CN1CCc2c(C#N)c(N3CCOCC3)nc(NCC3CCCO3)c2C1 (configuration not stated) | -3% | ? | ? | 2
COc1ccc2c(C(=O)c3ccc(C)cc3)n(Cc3ccc(C(N)=O)cc3)[n+]([O-])c2c1 | . | ? | -10% | .
O=C(OCCN1C(=O)c2ccccc2C1=O)C1CCN(S(=O)(=O)c2cccs2)CC1 | -4% | -3.1% | -2% | -2
CCOC(=O)C1CCCN(C(=O)c2ccc(C)c([N+](=O)[O-])c2)C1 (configuration not stated) | -5% | -1.4% | 0% | -1
COc1ccc(NC(C)=O)cc1S(=O)(=O)Nc1cccc(S(=O)(=O)NC2=NCCC2)c1 | . | -3.0% | 0% | .
O=C1c2ccccc2C(=O)N1CCCCNc1ccccc1 | . | -1.9% | 2% | .
CCc1ccc2nc3sc(C(=O)Nc4nnc(CC)s4)c(N)c3cc2c1 | -30% | ? | ? | 5
CC(C)c1ccccc1OCCNS(C)(=O)=O | -5% | 1.5% | 12% | -10
CCOC(=O)c1c(C)[nH]c(C(=O)COC(=O)[C@H](C)NC(=O)c2ccccc2Cl)c1C | -49% | 2.7% | 14% | 5
CC1CCCC(NC(=O)CCC(=O)N2CCOc3ccccc32)C1C (configuration not stated) | 2% | 3.5% | 9% | .
CN(C)S(=O)(=O)c1ccc(NC(=O)CSc2nc3ccccc3n2-c2ccccc2)cc1 | 25% | -0.6% | -23% | -19

Structural class: the entries above containing an NH in an aromatic ring.
SMILES | miR-21 reporter | Rango complex inh | Rango release inh | GLA inh pH 4.5
CCOc1cc(C2C(C#N)=C(N)Oc3n[nH]c(C)c32)ccc1OCCN1CCOCC1 (configuration not stated) | -4% | -0.4% | 17% | -2
CCOC(=O)c1c(C)[nH]c(C(=O)COC(=O)[C@H](C)NC(=O)c2ccccc2Cl)c1C | -49% | 2.7% | 14% | 5

More records:
SMILES | miR-21 reporter | Rango complex inh | Rango release inh | GLA inh pH 4.5
CC(=O)Nc1ccc(Sc2ncccc2C(=O)Nc2cc(Cl)cc(Cl)c2)cn1 | -7% | 7.6% | -4% | 4
Cc1cccc(Nc2ccccc2C(=O)OCC(=O)N(C)C2CCS(=O)(=O)C2)c1C (configuration not stated) | -3% | 0.4% | 4% | -10
NC(=O)C(=O)NCCCN1CCOCC1 | -2% | -5.2% | -1% | 4
CCc1cc(C(=O)NNC(=S)NC2CCCCC2)cs1 | -28% | 4.4% | -3% | .
CCNC(=O)c1ccc2c(c1)S(=O)(=O)c1ccccc1C2=O | -19% | -0.2% | -1% | -3
CC(C)(C)c1ccc(C(=O)N2CCN(C(=O)c3ccco3)CC2)cc1 | -3% | 2.7% | -5% | .
O=c1sc2ccccc2n1COc1ccccc1 | -34% | 11% | -5% | 1
CC(=O)N1N=C(C)CC1c1ccc(OCc2ccccc2)cc1 (configuration not stated) | -16% | 6.8% | 3% | -11
O=C(COc1ccc2ccccc2c1)N1CCN(C(=O)c2ccc([N+](=O)[O-])cc2)CC1 | -1% | 0.3% | -4% | -6
C=CCN1C(=O)C2(C(C#N)=C(N)Oc3n[nH]c(CCC)c32)c2ccccc21 (configuration not stated) | 0% | -1.8% | 2% | -10
CCN(Cc1ccccc1)C(=O)Cn1c(=O)n(CC(=O)NCc2ccco2)c(=O)c2sccc21 | 1% | 1.2% | -9% | 3
C=CC[C@@H](CC(=O)N[C@@H](CO)Cc1ccccc1)C(=O)N[C@H](COC(=O)[C@H](CC=C)CC(=O)OC(C)(C)C)Cc1ccccc1 | . | 0.1% | -16% | .
O=C(COc1ccc2ccccc2c1Br)Nc1ncn[nH]1 | -46% | ? | -2% | 4
O=C(Nc1ccc(Cl)cn1)c1ccc(COCC(F)(F)C(F)F)o1 | -25% | -0.9% | -13% | -10
O=S(=O)(Nc1cccc(-c2nc3cccnc3s2)c1)c1ccc2c(c1)OCCO2 | -13% | 4.2% | 1% | -15
Cc1cc(Br)ccc1NC(=O)c1ccccc1-c1ccccc1 | -10% | -0.7% | -5% | -8
COc1cc2nc(C)sc2cc1SC | -6% | -0.7% | 7% | 4
CCCNC(=O)COc1coc(CN2CCN(c3ccc(F)cc3)CC2)cc1=O | 1% | -0.8% | 2% | .
Cc1nnsc1C(=O)Nc1ccc(S(=O)(=O)N2CCCCC2)cc1 | 6% | -3.5% | 14% | .
CCOC(=O)CN(C(=O)CSc1nnc2c(n1)[nH]c1ccc(F)cc12)c1ccccc1 | 17% | -1.3% | 15% | 2
CCC(=O)N1N=C(c2cccs2)CC1c1ccco1 (configuration not stated) | -2% | 0.0% | -8% | -4
CCCn1c(SCC(=O)N2N=C3/C(=C/c4ccc(OC)cc4)CCCC3C2c2ccc(OC)cc2)n[nH]c1=O (configuration not stated) | -7% | 0.6% | -14% | -10
CCOC(=O)C(C(=O)N1CCOCC1)C1CCCCC1 (configuration not stated) | -2% | 5.5% | 12% | -2
Cc1[nH]c2ccccc2c1C(=O)Cn1c(=O)oc2ccccc21 | 4% | 0.6% | -15% | 6
COCCN(C(=O)CSc1nnc(-c2cccc(OC)c2)n1C)c1c(N)n(Cc2ccccc2)c(=O)[nH]c1=O | -1% | . | . | -3
Cc1cc(C)c(C#N)c(Oc2ccccc2Br)n1 | -8% | ? | -7% | -15
CC(C)C(=O)Nc1ccc(NC(=S)NC(=O)c2ccc([N+](=O)[O-])cc2)cc1 | -8% | -4.8% | 1% | 4
CCN(CC)c1ccc(CNc2nnnn2C)cc1 | 1% | -4.6% | 3% | .
C=CCn1c(SCC(=O)c2ccc(NS(=O)(=O)c3ccccc3)cc2)nnc1-c1cccs1 | -2% | 2.7% | 1% | 0
Cn1ncc(C(=O)Nc2ccc(Cl)cc2)c1C(F)(F)F | 0% | 0.4% | 4% | -7
C=C(C)C(=O)OCC(=O)NCc1ccccc1 | 0% | 2.0% | 20% | 6
COc1ccccc1CCNC(=O)CSc1ccc(-c2cccs2)nn1 | 1% | 0.7% | 27% | 0
Cc1ccc(C)c(N2CCN(S(=O)(=O)c3csc(C(N)=O)c3)CC2)c1 | 16%&30% | 0.1% | 12% | .
O=P(O)(CCc1ccccn1)CN1CCCCC1 | -6% | -0.4% | 8% | -8
CC1CCN(c2cc(C#N)c(C#N)cc2[N+](=O)[O-])CC1 | -4% | 0.1% | -11% | 1
Cc1cc(Br)ccc1NC(=O)c1sc2ncnc(N3CCN(c4ccccn4)CC3)c2c1C | 0% | -4.9% | 2% | .
Cc1nn(-c2cc(C)c3ccccc3n2)c2c1CCC2 | -8% | -7.0% | 1% | 8
O=C(CCC(F)(F)F)N1CCC(CO)(CCc2ccccc2)CC1 | -7% | -1.7% | 16% | .
CCOC(=O)c1ccc(NC(=S)N2CCN(CCN=CC3=C(O)CC(c4ccccc4)CC3=O)CC2)cc1 (configuration not stated) | 5% | 3.6% | 22% | -4
CCC1CCCCN1Cc1c(O)ccc2c(=O)c(-c3ccccc3OC)coc12 (configuration not stated) | . | -1.2% | 12% | .
CC(C)(C)Sc1ccc(/C=N/O)cc1[N+](=O)[O-] | -26% | 0.5% | -6% | 3
COCCn1c(N)c(N(Cc2ccccc2)C(=O)c2ccc(-c3ccc(Cl)cc3)o2)c(=O)[nH]c1=O | . | 5.1% | 6% | .
O=C(NCc1ccc(Cl)cc1)C1C2C=CC3(CN(Cc4cccnc4)C(=O)C13)O2 (configuration not stated) | -5% | 0.9% | 2% | -1
Cc1cc2oc(C(=O)NC3CCS(=O)(=O)C3)cc(=O)c2cc1C (configuration not stated) | 0% | 4.2% | -2% | .
COc1ccc(C(=O)OCC(=O)C(C)(C)C)cc1S(=O)(=O)N(C)CCc1cccnc1 | 0% | -0.2% | 7% | .
CCOC(=O)Cn1cnc2scc(-c3ccc(C)c(C)c3)c2c1=O | 15% | 0.3% | -17% | .
O=C(Nc1cccc2oc(=O)ccc12)c1ccc([N+](=O)[O-])cc1[N+](=O)[O-] | -7% | 3.4% | 2% | 3
Cc1ccc(-c2nnc(-c3ccc(NC(=O)Cc4cccs4)cc3)o2)cc1 | -4% | 4.9% | 2% | 1
